# NS1 inh: inhibitors of influenza NS1 protein function; Potency, µM (top dose mostly 46.1 µM), without a hit: top-dose activity, positive = more growth; actives 0.4% (n = 270,000); S. cerevisiae slowed by influenza A NS1, growth recovery by OD600; note: actives are rising curves; nearly all actives have a fitted effect of over 50% in size
#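 Recovery from NS1-induced slow growth read by OD600 in budding yeast switched to galactose assay medium (pH 6.0, -URA) at 1:100 dilution. Compound 23 nl per well; the matching strain lacking NS1 serves as control.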
# StopGo reporter: FMDV 2A StopGo reporter, luciferase signal; Potency, µM (highest dose often 57.9 µM), for the others: at the top dose signal change, negative = less light; human cells with a luciferase reporter of 2A StopGo recoding; control for the full effect not named in the record; actives 1.2% (n = 410,000); active = well fitted falling curve with a large enough effect; inconclusive = small, poorly fitted or top-dose-only effect; inactive = no such curve, though single readings can be large or run the other way; tested in HEK293T cells; note: % is set by controls: 0 for no effect and ±100 for the full control effect; nearly all actives have a fitted effect of over 45% in size; luciferase light after 4 h
# RE007 growth inh: less growth of the S. pombe RE007 Vpr strain; S. pombe RE007 Vpr strain, BacTiter-Glo ATP luminescence, 24 h; control for the full effect not named in the record; Potency, µM (highest dose often 92.2 µM), for the others: at the top dose activity change, negative = less growth; actives 0.21% (n = 360,000); AID 651644; active = well fitted falling curve with a large enough effect; inconclusive = small, poorly fitted or top-dose-only effect; inactive = no such curve, though single readings can be large or run the other way;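 note: % is set by controls: 0 for no effect and ±100 for the full control effect; nearly all actives have a fitted effect of over 50% in size; the assay follows cell death caused by Vpr and the record does not say whether a fall means rescue or toxicity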
#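 Fission yeast strain RE007, carrying one chromosomally integrated HIV-1 vpr copy, was seeded at OD 0.01 in PMG+AL medium with 23 nL pinned compound. After 24 h at 30 °C and 99% humidity, viability was read by BacTiter-Glo luminescence.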
# Cruzain Triton: inhibitors of Trypanosoma cruzi cruzain with detergent. purified cruzain, Z-FR-AMC fluorescence, 0.01% Triton. AID 1478. Potency, µM, without a hit: max response, negative = inhibition, most hits filed as inhibitors. actives 0.43% (n = 200,000). P25779; active = well fitted curve in the direction sought with a large enough effect; inconclusive = small, poorly fitted or top-dose-only effect, or another doubt; inactive = no such curve, though single readings can be large; an effect the other way counts as inactive or inconclusive;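 note: plate controls were neutral wells for no effect and buffer without enzyme for full effect; nearly all actives have a fitted effect of over 40% in size; top concentration of the series not given in the record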
# Target sequence (P25779 123-467 limits assumed): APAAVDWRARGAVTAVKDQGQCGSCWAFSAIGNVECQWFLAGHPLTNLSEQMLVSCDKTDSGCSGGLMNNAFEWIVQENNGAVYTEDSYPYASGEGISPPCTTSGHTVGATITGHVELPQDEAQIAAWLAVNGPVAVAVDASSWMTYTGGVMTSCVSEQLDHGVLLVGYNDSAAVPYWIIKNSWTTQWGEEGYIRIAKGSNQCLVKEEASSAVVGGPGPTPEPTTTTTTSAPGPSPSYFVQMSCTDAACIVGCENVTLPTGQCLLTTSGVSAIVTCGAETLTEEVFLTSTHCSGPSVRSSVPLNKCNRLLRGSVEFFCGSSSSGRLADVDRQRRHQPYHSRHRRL
#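 15 min RT preincubation of 1.5 nM cruzain with compound, then 2 uM Z-FR-AMC added; kinetic AMC fluorescence, 60 s delta. Triton X-100 0.01%, pH 5.5.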
# LASV entry inh: inhibitors of Lassa virus binding or cell entry | Lassa virus pseudotype entry inhibition, cell reporter; control for the full effect not named in the record | actives 1.2% (n = 300,000) | Potency, µM (highest dose often 37.9 µM), for inactives: top-dose activity change, negative = inhibition, most hits filed as inhibitors; active means well fitted inhibition curve with a large enough effect; inconclusive means small, poorly fitted or top-dose-only effect, or effect the other way; inactive means flat fitted curve, though single readings scatter; tested in HEK293 cells; note: % is set by controls: 0 for no effect and ±100 for the full control effect; nearly all actives have a fitted effect of over 50% in size; luciferase read-out
# Marburg entry inh: blocks Marburg virus binding to or entry into cells | actives 1.8% (n = 300,000) | Marburg virus pseudotyped entry inhibition, cell reporter; control for the full effect not named in the record; about a third of the inactives were read at about 46 µM | Potency, µM (titrated, usually from 37.8 µM), inactives show top-dose activity change, negative = inhibition, most hits filed as inhibitors; active = well fitted inhibition curve with a large enough effect; inconclusive = small, poorly fitted or top-dose-only effect, or effect the other way; inactive = flat fitted curve, though single readings scatter; tested in HEK293 cells; about a fifth of its hits are not listed in these tables; note: % is set by controls: 0 for no effect and ±100 for the full control effect; luciferase read-out
# Cruzain inh noDet: inhibitors of Trypanosoma cruzi cruzain without detergent. actives 2.3% (n = 200,000). AID 1476. purified cruzain, Z-FR-AMC fluorescence, no detergent. Potency, µM, for inactives: max response, negative = inhibition, hits mostly inhibitors; active = well fitted curve in the direction sought with a large enough effect; inconclusive = small, poorly fitted or top-dose-only effect, or another doubt; inactive = no such curve, though single readings can be large; an effect the other way counts as inactive or inconclusive;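 note: plate controls were enzyme without inhibitor for no effect and buffer without enzyme for full effect; nearly all actives have a fitted effect of over 40% in size; top concentration of the series not given in the record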
#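 Detergent-free condition (0.00005% Triton X-100) in acetate buffer pH 5.5 with DTT. 1.5 nM enzyme and compound were pre-mixed 15 min, then 2 uM Z-FR-AMC substrate added; reaction progress from fluorescence change between first and third reads (60 s).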
# SARS PLpro yeast: inhibitors of SARS-CoV papain-like protease in yeast | AID 485353 | Potency, µM (highest dose often 32.9 µM), inactives show top-dose activity, positive = growth rescue | S. cerevisiae expressing SARS-CoV PLpro, growth rescue; control for the full effect not named in the record | actives 0.19% (n = 330,000); note: 0% is about no effect; nearly all actives have a fitted effect of over 55% in size; growth read by luminescence after 48 h
# * hit, by the source's call; u = inconclusive; x = not tested or not shown; & = joins results of further samples; [ ] = another dose, or the depositor's remark. Unless noted, calls come from the whole dose curve; as a rule, active means well fitted rising curve with a large enough effect; inconclusive means small, poorly fitted or top-dose-only effect; inactive means no such curve, though single readings can be large or run the other way. Potency is the fitted concentration of half-maximal effect. Hits appear at their usual frequency. About 4.6% of those tested had a hit in this group.
# Results follow in this order: NS1 inh	StopGo reporter	RE007 growth inh	Cruzain Triton	LASV entry inh	Marburg entry inh	Cruzain inh noDet	SARS PLpro yeast
- Cc1noc(C)c1CSCC(=O)NCCN1C(=O)S/C(=C\c2ccccc2F)C1=O
 : x	u	-4%	x	u	0%	x	-1%
- CCC(CC)C(=O)Nc1cc(C(=O)OC)cc(C(=O)OC)c1
 : 2%	9%	7%	2.0%	-17%	u	-2%	u
- CC(NC(=O)COC(=O)/C=C/c1ccc(Cl)cc1)c1ccccc1 (stereo not drawn)
 : x	32%[activator]	2%	x	15%[46.1 µM]	u	x	0%
- O=C(CSc1n[nH]c(-c2cc(Cl)ccc2Cl)n1)NCCN1C(=O)CSC1=O
 : 1%	-18%	-12%	-0.8%	u	u	-14%	22%
- Cc1cc(-c2ccc(C)c(S(=O)(=O)NC3CCCCC3)c2)on1
 : x	76%[activator]	x	-9.1%	-18%[46.1 µM]	x	-20%	x
- N#CCSc1ncnc2c1cnn2CCO
 : 0%	-17%	10%	-1.7%	u	-24%	0%	5%
- COc1ccc(CCNC(=O)CC2Nc3ccccc3NC2=O)cc1 (stereo not drawn)
 : u	15%	10%	-1.1%	-5%	4%	-26%	-3%
- CCC1(C)Cc2c(sc3c2c(=O)n(C)c2nnc(SCCc4ccccc4)n32)CO1 (stereo not drawn)
 : 3%	-18%	-6%	-3.8%	-1%	u	11%	-4%
- Nc1nc2c(-c3ccc(Br)cc3)nnn2c2ccccc12
 : 3%	7%	-3%	x	x	x	x	1%
- CC1CN(c2oc(-c3ccccc3Cl)nc2C#N)CC(C)O1 (stereo not drawn)
 : 0%	0%	0%	-21%	19%	-9%	-12%	3%
- Cc1ccc(OCC(=O)NCc2cccs2)cc1
 : -5%	-7%	-12%[3.69 µM]	3.9%	-1%	-9%	4%	4%
- Nc1cc(Cl)ccc1N1CCCCCC1
 : x	10%	-7%	x	17%	29%[46.1 µM]	x	0%
- COc1cc(S(=O)(=O)Nc2ccncc2)ccc1F
 : x	6%	4%	x	0%	24%[46.1 µM]	x	1%
- O=C(COc1ncnc2sccc12)NC1CCCCC1
 : x	8%	8%	x	4%	14%[46.1 µM]	x	1%
- O=C(Cc1ccc2c(c1)OCCO2)Nc1cc(Cl)ccc1N1CCOCC1
 : x	-5%	8%	x	5%	4%[46.1 µM]	x	-2%
- CN1CCN(c2ccc(Cl)cc2NC(=O)CC2OC(=O)c3ccccc32)CC1 (stereo not drawn)
 : x	-14%	13%	x	0%[46.1 µM]	u	x	-1%
- CC(=O)N1CCc2cc(S(=O)(=O)NC(CC(C)C)C(=O)N3CCn4c3nc3ccccc34)ccc21 (stereo not drawn)
 : -24%	16%	2%	-1.9%	u	u	u	1%
- COCCCNC(=S)N(CCO)Cc1cc2cc3c(cc2[nH]c1=O)OCCO3
 : 5%	-2%	0%	x	x	x	x	3%
- COc1cc(C)c(S(=O)(=O)Nc2ccc(CC(=O)O)cc2)cc1C
 : u	32%[activator]	4%	0.1%	3%	-10%	-13%	-14%
- S=C(Nc1ccccc1)N1CCC(Cc2ccccc2)CC1
 : -63%	u	u	x	u	u	x	4%
- O=C(NCC(=O)N(c1cccnc1)C(C(=O)NC1CCCCC1)c1ccccc1)c1ccco1 (stereo not drawn)
 : -4%	5%	1%	x	23%	1%[46.1 µM]	x	-3%
- CC(C)NC1(C#N)CCN(Cc2ccccc2)CC1
 : x	-4%	-4%	x	-9%[46.1 µM]	-3%[46.1 µM]	x	x
- CC(=O)c1cccc(NC(=O)c2ccccc2-c2ccccc2C(=O)O)c1
 : 19%	9%	3%	x	x	x	x	4%
- CCC(=O)N1CCc2cc(S(=O)(=O)NCCCN(CC)Cc3ccccc3)ccc21
 : -4%	-7%	-4%	1.6%	10%	-18%	1%	-4%
- O=C(COc1cc2oc(=O)c3c(c2cc1Cl)CCC3)NCCCN1CCCC1=O
 : -9%	16%	-6%	x	x	x	x	-2%
- COc1ccccc1NC(=O)c1ccc(NC(=O)COC(=O)C2CC2C)cc1 (stereo not drawn)
 : -21%	-16%	-7%	-4.3%	0%	-12%	-3%	8%
- O=C(NCCCN1CCOCC1)c1ccc(CNS(=O)(=O)c2ccc(Br)cc2)cc1
 : 12%	2%	4%	-0.4%	26%&-5%	-4%&-23%	9%	u
- COc1cc(C(=O)N2C[C@H]3CC[C@H]2C3)ccc1OC1CCN(C(C)=O)CC1
 : -2%	-16%	4%	x	-1%	-1%	x	-1%
- CC(C)C[C@@H](CO)N1CCN(Cc2cccc(C#N)c2)CCC1=O
 : -1%	-22%	-24%	x	x	x	x	-6%
- Cc1cccc(N2CCN(c3ccc(N4C(=O)CCCC4=O)cc3[N+](=O)[O-])CC2)c1C
 : 1%	u	0%	-3.7%	-25%	15%	u	18%
- O=C1NC(=O)C2(COC(c3cccc([N+](=O)[O-])c3)OC2)S1 (stereo not drawn)
 : x	-4%	3%	x	-15%	8%[46.1 µM]	x	-4%
- Cc1ccc(CNC(=O)C2CCN(S(=O)(=O)c3cccs3)CC2)o1
 : 4%	6%	9%	-3.8%	-2%	14%	u	4%
- O=C1CSC(=S)N1/N=C/c1ccc2c(c1)OCCO2
 : 0%	u	5%	x	5%[46.1 µM]	u	x	0%
- CC(=O)c1ccc(OCC(=O)NCCC2=CCCCC2)cc1
 : x	-5%	-8%	x	4%	-8%	x	x
- Cc1cccc(NC(=S)N/N=C/c2cccn2Cc2ccc(F)cc2)c1
 : -2%	u	-7%	x	-18%	u	x	9%
- Cc1ccc(S(=O)(=O)Nc2ccc(-c3nc4ccc(C)cc4s3)cc2)cc1
 : 19%	50%[activator]	-6%	-6.0%	4%	-19%	u	-4%
- Cc1ccc(NC(=O)CNC(=O)c2cccc(C)c2)nc1
 : x	5%	4%	x	16%	13%[46.1 µM]	x	-4%
- CCCCN(CC)C(=O)CN(C)S(=O)(=O)c1cccc2nsnc12
 : 5%	-26%	0%	11%	-10%	u	-2%	-2%
- Cc1cc(O)c(C(=O)/C=C/c2ccccc2O)c(=O)o1
 : -11%	u	1%	x	x	x	x	-4%
- C=CCN(CCNP(=O)(OCC)OCC)CP(=O)(OCC)OCC
 : 15%	-9%	-2%	-0.6%	-14%	-10%[46.1 µM]	6%	-2%
- CC(C)c1ccc(NC(=O)C2CCCN(S(=O)(=O)c3ccc(Br)s3)C2)cc1 (stereo not drawn)
 : x	-11%	x	-4.5%	-22%[46.1 µM]	u	u	x
- C(#Cc1ccccc1)C[N+]1(CC#Cc2ccccc2)CCCC1
 : -9%	-10%	-1%	-3.0%	u	u	-13%	-9%
- COc1ccc(N=C(N)N=C(N)N)c(OC)c1
 : -7%	-6%	2%	2.7%	3%	-1%	2%	9%
- O=C(CN1C(=O)c2ccccc2C1=O)NN1C(=O)c2ccccc2C1=O
 : -4%	18%	6%	1.5%	13%	3%	u	-2%
- Cc1c(NC(=O)Nc2cccc(C(F)(F)F)c2)c(=O)n(-c2ccccc2)n1C
 : 0%	-25%	-3%	x	2%	2%	x	5%
- Cc1cc(OCC(=O)N(Cc2ccc(N(C)C)cc2)C2CCS(=O)(=O)C2)cc(C)c1Cl (stereo not drawn)
 : x	-20%	x	-4.1%	1%[46.1 µM]	u	u	x
- N#CCc1ccc(OC(=O)Nc2ccccc2)cc1
 : -5%	19%	5%	x	4%[46.1 µM]	28%[46.1 µM]	x	-1%
- CC(=O)OCC(=O)Nc1ccc(Br)c(C)c1
 : x	8%	8%	x	u	17%[46.1 µM]	x	-3%
- COc1cccc(CNCc2cc(OC)cc(OC)c2)c1
 : 24%	-25%	4%	x	x	x	x	37%
- CC(C)(C)NC(=O)C(c1ccccc1)N(Cc1ccco1)C(=O)c1csnn1 (stereo not drawn)
 : 4%	-4%	-3%	4.2%	-10%	9%	5%	0%
- COc1ccc2oc(C(=O)N3CCN(S(=O)(=O)c4ccc(F)cc4)CC3)c(C)c2c1
 : x	-21%	16%	x	u	u	x	2%
- CCOC(=O)c1c(C)c(C(=O)N2CCN(c3ccccc3)CC2)c(C)n1C
 : x	14%	3%	x	-3%[46.1 µM]	-17%[46.1 µM]	x	0%
- N#CC1(NC(=O)CSc2nc3ccccc3o2)CCCCC1
 : x	-1%	11%	x	4%	8%	x	14%
- CCOc1cc2nc(-c3ccc(OC)c(OC)c3)nc(N3CCOCC3)c2cc1OC
 : -17%	u	-13%	-6.3%	u	2.5µM*	u	8%
- Cc1ccc2c(C)c(C(=O)N3CCC(N4CCC(C(=O)NC5CC5)CC4)CC3)oc2c1
 : 1%	-17%	3%	x	-10%	-11%[46.1 µM]	x	1%
- O=C(O)CC1(CC(=O)Nc2ccc3c(c2)OCCCO3)CCCCC1
 : 0%	15%	12%	x	4%	8%[46.1 µM]	x	-1%
- O=C1CNC(=S)N1C1CCCCCC1
 : -3%	-6%	15%	x	7%[46.1 µM]	12%[46.1 µM]	x	14%
- N[C@@H](Cc1cnc[nH]1)C(=O)O
 : 3%	x	x	2.6%	11%	-16%&-3%&-3%	u	x
- O=S(=O)(NCc1ccccc1)c1ccc(S(=O)(=O)NCC2CCCO2)cc1 (stereo not drawn)
 : -2%	45%[activator]	-3%	x	-18%	18%[46.1 µM]	x	0%

# Reprinted at random: 3 entries already listed, in no set order.
# Results follow in this order: NS1 inh	StopGo reporter	RE007 growth inh	Cruzain Triton	LASV entry inh	Marburg entry inh	Cruzain inh noDet	SARS PLpro yeast
- COc1cccc(CNCc2cc(OC)cc(OC)c2)c1
 : 24%	-25%	4%	x	x	x	x	37%
- COc1ccc(N=C(N)N=C(N)N)c(OC)c1
 : -7%	-6%	2%	2.7%	3%	-1%	2%	9%
- N#CCc1ccc(OC(=O)Nc2ccccc2)cc1
 : -5%	19%	5%	x	4%[46.1 µM]	28%[46.1 µM]	x	-1%

# Assay outcomes (PubChem)
